# Menin-MLL FL inh: inhibitors of human menin-MLL interaction, wild-type MLL peptide. FP activity change, % at 61.4 µM. Fluorescence polarization, fluorescein-MLL peptide displacement from menin. 290,000 tested, under 10 active; inconclusive = falling polarisation curve, or a change in total fluorescence; inactive = total fluorescence flat and polarisation flat or rising; no compound was filed as active; the % refers to the polarisation; negative = inhibition;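 further: % of control where 0% means no effect; inhibitors lower the polarisation; unlabelled MLL peptide was the positive control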
# D2 ag: agonists of human D2 dopamine receptor (beta-arrestin). P14416. DiscoveRx PathHunter D2 beta-arrestin, luminescence, 90 min; 100% = 57 uM dopamine signal. activation, % (test concentration not listed). 360,000 tested, 0.084% active. AID 624465; in the data active = activation above about 40%; inconclusive = about 15% to 40%; inactive = below about 15%; further: compound concentration not given in the record; the text of the record calls up to 30% inactive
# Target sequence (P14416 whole entry, looked up): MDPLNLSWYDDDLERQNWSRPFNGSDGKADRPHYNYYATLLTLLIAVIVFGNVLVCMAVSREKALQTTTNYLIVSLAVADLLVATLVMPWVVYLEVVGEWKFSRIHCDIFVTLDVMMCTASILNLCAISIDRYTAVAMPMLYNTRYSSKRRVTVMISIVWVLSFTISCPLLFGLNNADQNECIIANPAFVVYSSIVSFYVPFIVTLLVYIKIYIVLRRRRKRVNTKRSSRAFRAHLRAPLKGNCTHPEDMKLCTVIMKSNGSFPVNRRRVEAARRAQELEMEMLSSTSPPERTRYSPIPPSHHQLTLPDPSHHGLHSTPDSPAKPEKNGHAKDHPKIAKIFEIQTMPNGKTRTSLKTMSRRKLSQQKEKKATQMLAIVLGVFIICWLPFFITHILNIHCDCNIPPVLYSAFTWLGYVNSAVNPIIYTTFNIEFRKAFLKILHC
#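 Agonist mode: compounds alone added to overnight-plated D2 PathHunter cells for 90 min at 37 C, with 57 uM final dopamine (EC100) defining full response. Beta-arrestin recruitment detected by chemiluminescent reagent, read after 1 h at ambient temperature.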
# ClpP mod: qHTS Assay for Activators of ClpP | purified B. subtilis ClpP, FRET peptide cleavage, 20 min | 340,000 tested, 1.9% active | ATP-dependent Clp protease proteolytic subunit (Bacillus subtilis (strain 168)), P80244 | Potency, µM (series often up to 57.5 µM), without a hit: at the highest dose activity change, negative = active; active = well fitted falling curve with a large enough effect; inconclusive = small, poorly fitted or top-dose-only effect; inactive = no such curve, though single readings can be large or run the other way; further: potency means the concentration at half of the fitted maximal effect; the source files actives as falling curves though it sought activators and does not explain the sign; nearly all actives have a fitted effect of over 65% in size; many hits overshoot -100%
# Target sequence (P80244 whole entry, looked up): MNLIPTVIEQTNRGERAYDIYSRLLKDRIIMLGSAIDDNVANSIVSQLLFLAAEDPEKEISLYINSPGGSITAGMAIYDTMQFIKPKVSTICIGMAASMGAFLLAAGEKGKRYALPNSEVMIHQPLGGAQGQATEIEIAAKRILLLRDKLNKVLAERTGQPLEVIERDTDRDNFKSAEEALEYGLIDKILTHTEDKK
#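 ClpP 10 microg/mL final, pH 8 Tris/KCl buffer with BSA, glycerol, Tween-20; compound pinned in; FRET-FV substrate; RT 20 min; Ex320/Em430; ΔFRET vs ADEP 5.8 microM, DMSO, no enzyme.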
# gsp antagonist: antagonizes gsp, the McCune-Albright syndrome mutation; gsp-mutant cells, cAMP HTRF, 30 min; control for the full effect not named in the record; Potency, µM (titrated, usually from 76.9 µM), without a hit: at the highest dose activity change, negative = inhibition, actives largely listed as inhibitors; 340,000 tested, 0.4% active; active = falling curve of any shape with a large fitted effect; inconclusive = falling curve, mostly with a smaller effect; inactive = flat or rising curve; cell line not stated here;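 further: intracellular cAMP measured with PDE inhibitor Ro 20-1724 present during compound exposure; potency means the concentration at half of the fitted maximal effect; on the % scale 0 is the no-effect control and ±100 the full control effect; nearly all actives have a fitted effect of over 65% in size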
#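 HTRF cAMP read-out (cAMP-d2 plus anti-cAMP antibody-K in lysis buffer, 30 min RT). Before lysis, cells are exposed to compounds with […] for 30 min at 37C in DPBS containing Ca/Mg, BSA and Tween 20.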
# PINK1 modulator: changes PINK1 expression; PINK1 immunofluorescence, high-content cytometry, 24 h; Potency, µM (top dose mostly 76.6 µM), inactives show at the highest dose activation (PINK1 increase), actives largely listed as activators; 410,000 tested, 0.2% active; active = well fitted activation curve with a large enough effect; inconclusive = small, poorly fitted or top-dose-only effect; inactive = flat fitted curve, though single readings scatter; cell line not stated here;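 further: potency means the concentration at half of the fitted maximal effect; % of control where 0% means no effect; nearly all actives have a fitted effect of over 65% in size; a mitochondrial uncoupler was the plate control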
#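 Fluorescence from anti-PINK1 antibody, together with nuclear and cell stains, was scanned on a laser-scanning cytometer. Before staining, stable-line cells were incubated 24 hours with compounds at 5 concentrations; primary antibody 12 h at 10 degrees C.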
# gsp ag: activates gsp, the McCune-Albright syndrome mutation; gsp mutant cells, cAMP HTRF, 30 min; control for the full effect not named in the record; Potency, µM (series often up to 76.9 µM), inactives show at the top dose activation (cAMP increase), actives largely listed as activators; 340,000 tested, 0.13% active; active = well fitted activation curve with a large enough effect; inconclusive = small, poorly fitted or top-dose-only effect, or another doubt; inactive = no such curve, though single readings can be large or run the other way; cell line not stated here;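 further: phosphodiesterase inhibitor Ro 20-1724 added with compounds to block cAMP breakdown; potency means the concentration at half of the fitted maximal effect; nearly all actives have a fitted effect of over 60% in size; about a fifth of the inactives were tested at one dose only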
#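 Cells in DMEM/10% FBS with G418 were pretreated with compounds in DMSO plus […] (300 uM stock) for 30 min at 37C. cAMP was measured by HTRF (cAMP-d2 plus anti-cAMP antibody-K) after 30 min at room temperature.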
# Sfp PPTase inh: inhibitors of Bacillus subtilis Sfp phosphopantetheinyl transferase; Biochemical Sfp PPTase activity, qHTS; Potency, µM, for inactives: max response, negative = inhibition, actives largely listed as inhibitors; 310,000 tested, 3.5% active; AID 1490; active means well fitted inhibition curve with a large enough effect; inconclusive means small, poorly fitted or top-dose-only effect, or another doubt; inactive means no such curve, though single readings can be large or run the other way;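 further: the enzyme is Sfp with the accession as filed and its product quenches rhodamine fluorescence; potency means the concentration at half of the fitted maximal effect; 0% = enzyme reaction without inhibitor and -100% = no enzyme wells; top concentration of the series not given in the record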
#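 With Hepes-Na pH 7.6 buffer containing 10 mM MgCl2, Sfp (15 nM) modified BHQ-2-YbbR (12.5 uM) using rhodamine-CoA (5 uM). Two reads 30 minutes apart at 525/598 nm yielded each well's rate.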
# * hit, by the source's call; ? = inconclusive; . = no result given; & = joins results of further samples; [ ] = remark or other dose.
SMILES,Menin-MLL FL inh,D2 ag,ClpP mod,gsp antagonist,PINK1 modulator,gsp ag,Sfp PPTase inh
CCCCc1nc2cc(C(=O)NCc3nccn3CC)ccc2o1,0.1,-1.5,-3.4%,-6%,0.0%,-21%,6%
O=C(CSc1nnc2ncccn12)Nc1cccc2ccccc12,-0.6,0.4,.,-6%,1.0%,?,-1%
COc1ccc(CNC(=O)c2onc(C)c2Cl)cc1,-3.4,3.5,1.1%,6%,0.3%,1%,22%
Cc1ccc(-c2onc3ccc(Br)cc23)cc1,1.4,15,.,-10%,7.8%,-9%[15.4 µM],3%
Cc1ccc(SCc2nc(-c3cccnc3)no2)cc1,0.4,-2.0,-5.9%,-1%,-0.1%,-10%,-14%
Cc1ccc(C(=O)COC(=O)c2ccc3c(c2)C(=O)N(c2cccc4ncccc24)C3=O)cc1,4.2,0.4,-1.2%,6%,0.2%,?,79µM*
CC(=O)Nc1ccc2nc(-c3cccn3C)[nH]c2c1,-1.3,-3.6,.,-16%,1.0%,-31%[inhibitor],0%
CCCOc1ccc2oc(=O)c3c(c2c1)CCCN3C(=O)CN1CCN(c2ncccn2)CC1,-0.8,-2.0,-12%,9%,0.5%,-38%[inhibitor],14%
CCOC(=O)C1=C(C)NC(=O)NC1c1ccccc1OCc1c(F)cccc1Cl (configuration not stated),3.7,-1.4,0.3%,0%,-1.4%,21%,-11%
COc1cc(C(=O)OCC(=O)N2CCCCCC2)c([N+](=O)[O-])cc1OC,.,1.9,0.6%,-2%,-0.7%,-29%,.
CC(=O)Nc1nc(C2COc3ccccc3O2)cs1 (configuration not stated),0.0,3.0,-7.6%,8%,.,-14%,12%
COc1ccc(NC(=O)c2sc3nc(C)cc(C)c3c2N)c(OC)c1,.,-2.4,4.0%,8%,1.0%,-22%,.
COC(=O)C1=C(C)N(CC(C)C)C(=O)/C1=C\c1cccs1,-1.0,-6.9,0.1%,6%,1.0%,19%,3%
CCCC(=O)Nc1ccc(NC(=O)c2cccc(OC)c2)cn1,-0.7,6.7,-1.4%,0%,-0.2%,-9%[15.4 µM],10%
COC(=O)c1ccc(S(=O)(=O)NC(C)(C)C)n1C,-4.1,2.7,-1.0%,2%,2.5%,8%[15.4 µM],24%
Cc1ccc(Cn2c(NS(=O)(=O)c3ccccc3)nc3ccccc32)cc1,2.1,-2.3,-2.7%,-16%,-0.4%,-10%,9%
CCC(C)(C)n1nnnc1C(c1ccc2ncccc2c1)N1CCN(c2ccc(O)cc2)CC1 (configuration not stated),4.3,1.3,.,?,0.6%,-5%[15.4 µM],20µM*
CCNC(=S)NNC(=O)CCc1nc2cc(Cl)ccc2n(Cc2ccccc2)c1=O,.,-2.3,.,-22%,-0.8%,5%[15.4 µM],4%
Cc1nonc1C(=O)N/N=C/c1ccc(O)c(O)c1,-0.5,2.8,28µM*,14%,14%,-24%,-6%
O=C(CSc1nnc(CNC(=O)c2ccccc2)o1)Nc1ccc2c(c1)OCCO2,.,-1.2,0.8%,3%,1.1%,-68%[inhibitor],6%
S=c1[nH]cc(-c2ccccc2)n1-c1ccccc1Cl,3.1,1.9,-1.6%,-21%,0.5%,?,?
N#Cc1ncc(-c2ccc3c(c2)OCCOCCOCCOCCO3)nc1C#N,-3.3,-2.9,1.5%,-7%,18%,9%,10%
CCCCOc1ccc(/C=C/C(=O)Nc2ccc(C(N)=O)cc2)cc1,.,0.8,-12%,-11%,-0.1%,8%,13%
CCN(Cc1nc2ccccc2c(=O)[nH]1)C(=O)c1cccc(S(=O)(=O)N2CCc3ccccc32)c1,.,0.6,-3.8%,-18%,-0.1%,3%,.
O=C(O)c1ccccc1C(=O)c1ccc(Oc2ccccc2)cc1,3.5,2.2,-1.8%,-4%,-2.3%,10%[15.4 µM],-29%
# New compounds follow:
SMILES,Menin-MLL FL inh,D2 ag,ClpP mod,gsp antagonist,PINK1 modulator,gsp ag,Sfp PPTase inh
Cc1nn(CC(=O)N2CCN(S(=O)(=O)c3ccccc3)CC2)c(C)c1[N+](=O)[O-],.,1.0,-1.0%,7%,-0.6%,?,.
COC(=O)c1ccccc1NC(=O)CSc1nnc(CNS(=O)(=O)c2ccc(C)cc2)n1C,-3.9,1.0,-3.9%,4%,-0.4%,-9%,-13%
CCN(CC)c1ccc(C=Nc2cccnc2Cl)c(O)c1,9.4,6.6,-1.7%,11%,-2.1%,?,0%
COc1ccc(Cc2nnc(NC(=O)Cc3cccs3)s2)cc1OC,8.6,0.4,28µM*,-3%,0.5%,-30%[inhibitor],-26%
O=C(NC1CCCCC1)c1ccc(-c2cccc([N+](=O)[O-])c2)o1,-5.6,6.3,1.0%,-15%,3.0%,5%,-7%
CCSc1nnc(NC(=O)c2ccccc2C)s1,-4.7,-7.5,.,-11%,1.7%,2%[15.4 µM],6%
COc1ccc(S(=O)(=O)Cc2ccc(C(=O)N3CCc4ccccc4C3)o2)cc1,2.5,-0.6,1.8%,-8%,-0.4%,19%,-11%
COc1cccc(CN(C)CC(=O)Nc2cccc(S(N)(=O)=O)c2)c1OC,4.0,0.3,-1.7%,-12%,1.5%,-4%,10%
Cc1cccc(-n2ncc3c(N4CCCc5ccccc54)ncnc32)c1,1.8,-1.4,32µM*,?,?,3%,-6%
CCOc1cc(/C=N/NC(=O)CSc2nnc(C)s2)ccc1OCc1ccccc1Cl,2.9,-5.6,-3.5%,?,9.4%,16%,-21%
COc1ccc(S(=O)(=O)NCc2ccncc2)cc1NC(=O)c1ccccc1F,.,6.4,-8.5%,-6%,1.9%,25%,.
Cc1[nH]c2ccccc2c1SCC(=O)NC1CCCCC1,-0.7,-4.3,0.1%,-16%,2.6%,?,1%
CC1CCN(C(=O)c2cc3ccccc3c(=O)o2)CC1,1.1,-3.7,1.8%,8%,-0.4%,14%,10%
COc1cccc(/C(O)=C/C(=O)C(=O)Nc2ccc(S(=O)(=O)NC(C)=O)cc2)c1,5.5,-0.4,-2.8%,4%,0.6%,-43%[inhibitor],-16%
COc1cccc(CN(C)Cc2nc(Cc3ccccc3Cl)no2)c1,1.6,2.5,.,-3%,8.2%,-3%[15.4 µM],6%
CCN(CC)C(=O)N1CCc2ccccc21,-0.8,-5.8,-0.6%,9%,?,?,17%
Cc1ccc(NC(=O)CCN2C(=O)c3ccccc3C2=O)cc1C,7.0,-5.3,0.5%,-10%,1.7%,0%,16%
CCOc1ccc(-c2cc3cc(OC)c(OC)cc3c(C)n2)cc1,-6.5,-4.4,.,8%,6.4%,-1%[15.4 µM],21%
COCCCNS(=O)(=O)c1cc2c3c(c1)C(C)C(=O)N3CCC2 (configuration not stated),0.6,5.7,-2.5%,7%,0.5%,-1%,2%
OC(COCC(F)(F)C(F)(F)C(F)(F)C(F)F)Cn1c2ccccc2c2ccccc21 (configuration not stated),0.8,-2.5,-18%,-3%,1.0%,-8%[15.4 µM],11%
O=C(CSc1nnc(NCc2ccccc2)s1)NC1CCS(=O)(=O)C1 (configuration not stated),6.5,-0.5,1.3%,14%,-0.2%,8%,13%
CC(=O)Nc1cccc(-c2nnc(SCc3ccccc3C#N)n2C)c1,-0.3,1.8,-0.4%,7%,?,-69%[inhibitor],11%
CC(C)(C)c1ccc(C(=O)C2CCCN(C(=O)CN3CCCC3=O)C2)cc1 (configuration not stated),5.7,-3.2,1.2%,-5%,1.6%,-36%[inhibitor],12%
O=c1cc(Nc2ccc3c(c2)OCCO3)[nH]c(=O)n1C1CCCCC1,0.7,-0.1,0.1%,-3%,21%[38.3 µM],-32%[inhibitor],-3%
Cc1ccc(C2(C)NC(=O)N(CC(=O)NCCC3=CCCCC3)C2=O)cc1 (configuration not stated),1.2,1.3,-4.3%,4%,-0.4%,9%,2%
# Next section:
SMILES,Menin-MLL FL inh,D2 ag,ClpP mod,gsp antagonist,PINK1 modulator,gsp ag,Sfp PPTase inh
Cc1nc2ccc(NC(=O)c3cc([N+](=O)[O-])cc([N+](=O)[O-])c3Cl)cc2s1,1.1,12,2.1%,?,1.7%,-61%[inhibitor],?
CCC(Sc1ccccn1)C(=O)Nc1nnc(C)s1 (configuration not stated),4.9,-2.8,-1.5%,7%,4.1%,-42%[inhibitor],0%
COc1ccc(C(=O)N2CCN(c3cccc(C)c3C)CC2)cc1S(=O)(=O)NC1CC1,.,-3.3,-3.2%,-14%,4.1%,-26%,.
O=C(COc1ccccc1C(=O)NCc1ccccc1)Nc1ccccc1,.,-0.7,-22%,?,-1.5%,2%,.
CC(=O)NNc1ncnc2c1cnn2-c1ccccc1,-1.3,-0.3,-27%,13%,-1.9%&2.5%,-34%[15.4 µM],17%
O=C(O)C1C(c2ccccc2)C(C(=O)Oc2ccc(O)cc2)C1c1ccccc1 (configuration not stated),2.2,2.7,-2.7%,7%,-3.9%[38.3 µM],2%,15%
Cc1cccc(OCc2nn[nH]n2)c1C,?,-1.9,.,-3%,2.1%,-68%[inhibitor],1%
O=C(Nc1cccnc1)C1Cc2c(-c3ccco3)ccnc2O1 (configuration not stated),.,2.5,4.4%,.,1.4%,.,.
CCOCCCNc1nc2nc3ccc(C)cn3c(=O)c2cc1C(=O)NCC1CCCO1 (configuration not stated),1.7,1.4,.,.,2.6%,-3%[15.4 µM],15%
COc1ccc(C(=O)Nc2sc(C)c(C)c2CN2CCOCC2)cc1,3.1,-1.9,-0.8%,-14%,1.6%,-13%[15.4 µM],?
COC(=O)Cn1c(Cc2ccccc2)nc2ccccc21,1.9,-3.8,.,-2%,-0.7%,-4%,12%
C=C1C[C@@]23CCC4[C@@](C)(CCC[C@@]4(C)C(=O)OC)C2CC[C@]1(OC(C)=O)C3 (some centres not stated),.,-1.3,-1.3%,-11%,?,.,.
Cc1ncc(N=Nc2ccc(F)cc2)c(-c2ccc(Cl)cc2)n1,2.4,0.5,0.3%,-10%,7.2%,26%,6%
CCCCCC(O)(CCN1CCCCC1)c1ccccc1 (configuration not stated),-1.9,-3.8,0.2%,-4%,0.1%,-2%,2%
CCN=C(N/N=C/c1ccc([N+](=O)[O-])cc1)SC,-0.1,-3.3,-5.2%,1%,-3.3%,2%,79µM*

# Bioassay records from PubChem.
